# Assay outcomes (PubChem)
# Vaccinia pol inh – vaccinia E9 polymerase processive synthesis inhibitors, primary screen, biochemical, absorbance | 46,000 tested, 0.94% active | AID 493162, 2011 | normalized absorbance, % (test concentration not listed) | Vaccinia virus DNA polymerase (E9) processive complex | in vitro processive DNA synthesis, absorbance read-out; stronger effect = lower value; some inactives read as strong as hits;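 active = replicate mean up to 90% and picked by the depositor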;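 note: 100% = median of the test wells of a plate; 100 nL library stock went into each well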
# * hit, by the source's call. Only part of the results is shown; the hit share may differ from the screen's.
smiles,Vaccinia pol inh
O=C(O)COCC(=O)Nc1ccc(-n2ccc(C(F)(F)F)n2)cc1,101
CCN1C(=O)/C(=C2/C(=O)N(Cc3ccc(Cl)cc3)c3ccccc32)SC1=S,104
Cc1noc(C)c1-n1sc(=O)n(CC2CC2)c1=O,102
CCOC(=O)CSC1=C(C#N)C(c2ccccc2)CC(=O)N1 (stereo unspecified),96
Cc1cc(C(=O)OCC(=O)N2CCc3ccccc32)c(C)o1,104
O=C(Nc1scc(-c2cccs2)c1C(=O)O)c1cccs1,99
CC(C)CCn1c(=O)c2sccc2n2c(CCCC(=O)N3CCCC3)nnc12,99
CCC(=O)OCC(=O)Nc1ccc(Br)cc1Br,102
CCc1ccccc1N(C)S(=O)(=O)c1c(C)noc1/C=C/N1CCOCC1,98
CC(C)c1ccccc1NC(=O)COC(=O)c1ccc(N(C)C)cc1,86
COC(=O)CCC(=O)Nc1sc(C)c(C)c1C(N)=O,102
Cc1nc(-c2cc(C#N)c(SCCNS(=O)(=O)c3ccc(C(C)(C)C)cc3)nc2C)cs1,100
CCc1ccccc1Nc1cc(C(=O)NCC2COc3ccccc3O2)c2ccccc2n1 (stereo unspecified),99
Cc1oc2cc(OC(C)C)ccc2c(=O)c1-c1ccc2c(c1)OCCO2,100
CCOc1ccc(NC(=O)C2CCN(C(C)=O)CC2)cc1,104
CC(=O)NC(C)c1nc2ccccc2[nH]1 (stereo unspecified),101
COc1cccc(OCC(O)CN2CCCCC2)c1 (stereo unspecified),101
CCC1CCc2nc3sc(C(=O)NC(C)c4ccccc4)c(N)c3cc2C1 (stereo unspecified),99
COC(=O)CSc1nnc2sc3ccccc3n12,100
CC(=O)NC(CSCc1ccccc1)C(=O)O (stereo unspecified),114
CC(=O)Oc1ccc2c(=O)c(-c3ccc4c(c3)OCCO4)coc2c1,102
CCSc1ccsc1C1C(C#N)=C(N)N(c2cccnc2)C2=C1C(=O)CC(C)(C)C2 (stereo unspecified),100
Cc1cc(-c2noc(-c3cc(C)on3)n2)no1,101
Nc1ccc(C(=O)OCC(=O)Nc2ccc(Br)cc2Br)cc1,100
CC(C)N(c1nnc(N)s1)C(C)C,101
Cc1c(C(N)=O)cnn1-c1ccc(Cl)cc1,102
NS(=O)(=O)c1ccc(CCNC(=O)c2oc(=O)c3ccccc3c2-c2ccccc2)cc1,100
O=c1[nH]c(=S)[nH]c(O)c1C=Nc1cccc(O)c1,105
CC(C)CNC(=O)c1cccc(S(=O)(=O)N2CCCCC2)c1,99
CC(CNC(=O)c1cc2oc3ccccc3c2n1C)c1ccccc1 (stereo unspecified),103

# Fetched one by one from above:
smiles,Vaccinia pol inh
CC(C)c1ccccc1NC(=O)COC(=O)c1ccc(N(C)C)cc1,86
CCC(=O)OCC(=O)Nc1ccc(Br)cc1Br,102
Cc1noc(C)c1-n1sc(=O)n(CC2CC2)c1=O,102

# (cont.)
smiles,Vaccinia pol inh
O=C(NCCOC12CC3CC(CC(C3)C1)C2)c1nc(-c2cccnc2)no1,105
O=C(NCCn1ccc2ccccc21)c1ccc(Cl)cc1Cl,100
COc1ccc(N/C(N)=N/c2nc(CSc3nc4ccccc4s3)cc(=O)[nH]2)cc1,100
COc1ccc(C(=O)CSc2nn3c(SCC(=O)c4ccc(OC)cc4)nnc3s2)cc1,100
CN(C)S(=O)(=O)c1ccc2c3c(cccc13)C(=O)N2,99
Cc1cc(C)cc(N2C(=O)c3ccccc3NC2c2ccc(Cl)cc2)c1 (stereo unspecified),100
O=C(O)Cc1ccc2sc(-c3ccccc3)nc2c1,105
CN(Cc1ccccc1)c1nc(-c2ccccc2)cc(C(F)(F)F)n1,101
O/C(=C/Sc1nnc(Cc2ccccc2)o1)c1ccc(F)cc1,100
COC(=O)C1C(=O)NC(SC)=C(C#N)C1c1ccccc1C (stereo unspecified),97
Cc1ccc(N2C(=O)/C(=C3/C(=O)N(C)c4ccccc43)SC2=S)cc1,101
COC(=O)c1ccc2c(c1)N(C)C(=O)/C(=C/c1ccccc1OC)S2,105
C=CC[n+]1c(C)csc1Nc1ccc(C)cc1,84
Cc1cc(C)c(OC(=O)/C=C/c2cccs2)c(C)c1,100
Cc1ccc2c(c1)C(c1ccc(F)cc1)=NCC(=O)N2,107
C=C1N(c2nc(C)cc(C)n2)C(=O)OC1(C)C,100
c1ccc2c(CSc3nc4ccccc4o3)cccc2c1,98
Cc1ccc(N(CC(=O)NCc2cccs2)S(=O)(=O)c2cccs2)cc1,102
CC1CCN(S(=O)(=O)c2ccc(C(=O)NCc3ccco3)cc2)CC1,100
CC1CCCC(NC(=O)c2ccc3c(c2)NC(=O)CS3)C1C (stereo unspecified),75
CC(=O)Nc1ccccc1-c1nc2ccc(C(=O)N3CCN(c4cccc(C)c4)C(C)C3)cc2[nH]c1=O (stereo unspecified),103
Cc1cc2ccccc2n1CCNC(=O)C12CC3CC(CC(C3)C1)C2,84
CCn1ncc(Cc2cnn(CC)c2C)c1C,103
COC(=O)C(N)Cc1c[nH]c2ccccc12 (stereo unspecified),100
Cc1cccc(Oc2ncc(F)c(Oc3cccc(C)c3)n2)c1,100
O=C1CCC(=O)N1c1nccs1,100
COc1ccc(NC(=O)CCc2nnc3n(Cc4ccccc4)c(=O)c4ccccc4n23)cc1,102
c1ccc(CSc2nnc(CCCCc3nnc(SCc4ccccc4)o3)o2)cc1,99
Cc1ccc(N2C(=O)Nc3ccccc3C2(O)C(=O)NC2CCCC(C)C2C)cc1C (stereo unspecified),96
Cc1ccc(S(=O)(=O)NC(=O)N2c3ccccc3CCc3ccccc32)cc1,100
CS(=O)(=O)Nc1ccc2c3c(cccc13)CC2,98
Cc1cc(C)c2nc(NC(=O)CCOc3ccccc3)sc2c1,97
O=C(NCCC1=CCCCC1)c1cc2cc(Cl)cc(Cl)c2oc1=O,98
Cc1cc(C)cc(Oc2coc3cc(OCC(=O)NCc4ccccc4)ccc3c2=O)c1,100
CCOC(=O)c1sc2nc(Cc3ccccc3)nc(NCCC3=CCCCC3)c2c1C,95
CCn1cnc2c(oc3ccccc32)c1=O,92
CC(C)(C)C(=O)CSc1nc2ccccc2c(=O)n1-c1ccccc1,105
N#C[C@@H]1C[C@@](C#N)(C(=O)c2ccccc2)[C@H]2C=Cc3ccccc3N12,100
CC(=NCc1ccc(Cl)c(Cl)c1)c1ccccc1O,100
CCOc1ccc(OCC(=O)O)cc1,101
Cc1csc(NC(=O)C2CC2)n1,101
CN1C2CCC1CC(N=Cc1ccccc1)C2 (stereo unspecified),104
O=c1cc(Nc2ccccc2)cc[nH]1,97
Cn1c(=O)c(C#N)c(-c2ccccc2)n2cnnc12,100
O=C(Cn1ccn(-c2ccccc2)c(=O)c1=O)c1ccc(F)cc1,114
c1ccc(-c2nnc(CN3CCc4ccccc4C3)o2)cc1,111
O=C(Cn1ncc2ccccc21)NCc1ccc(Cl)cc1,100
O=C(CCn1c(=S)oc2ccccc21)Nc1ccccc1F,97
Cc1ccc(CNC(=O)Cn2c(=O)n(-c3ccc(C)c(C)c3)c(=O)c3c(C)c(C)sc32)cc1,101
CCCN=c1ssc(=O)n1CCC,100
CSC1=NCCN1CC(=O)c1ccc(F)cc1,88
COC(=O)/C=c1\sc2n(c1=O)CCN=2,100
Cn1c2ccccc2c2nnc(SCCCC(=O)c3ccc4c(c3)OCCO4)nc21,105
c1ccc(-c2ccc(-c3csnn3)cc2)cc1,98
O=c1[nH]c(C23CC4CC(CC(C4)C2)C3)cs1,100
O=C(NC(=O)C(F)(F)F)Oc1ccc(Cl)cc1,93
Cc1cc(C(=O)NCc2cccn2C)nn1C,97
N#Cc1ncc(C(F)(F)F)cc1SCc1ccc(Cl)cc1,119
CCn1c(C(=O)O)c(CC(=O)Nc2ccccc2F)c2ccccc21,100
OC1CCC(n2c(-c3ccccc3)nc(=S)c3c2CCCC3)CC1 (stereo unspecified),99

# Next section:
smiles,Vaccinia pol inh
CSC(=NCc1ccccc1)Nc1cc(-c2ccccc2)[nH]n1,100
Fc1cccc(F)c1N=Cc1cccnc1,99
Cc1[nH]c2ccccc2c1Sc1ccccc1N,98
Cc1ccc(NC(=O)c2oc3ccc(S(=O)(=O)N(C)C4CCCCC4)cc3c2C)cc1C,100
N#CCSc1nc2ccc(N3CCOCC3)cc2c(=O)n1CCc1ccccc1,93
COc1ccc(NC(=O)N2CCC(CN3CCCCC3)CC2)cc1OC,96
CCN1C(=O)N/C(=C/c2cn(Cc3ccccc3)c3ccccc23)C1=O,100
Clc1ccc(-c2cnc3[n+](c2)[C@H](CBr)CS3)cc1,104
Cc1ccc(S(=O)(=O)/C(C#N)=C/c2sccc2C)cc1,100
Cc1c(C(=O)O)oc2ccccc12,100
N#Cc1c(NC(=O)CC2CCCC2)sc2c1CCC2,103
O=C1C2C3C=CC(C3)C2C(=O)N1c1cccc(O)c1 (stereo unspecified),100
CC1=C2C[C@H]3[C@@H](CC=C4C[C@@H](O)CC[C@@]43C)[C@@H]2CC[C@]12O[C@@H]1C[C@H](C)CN[C@H]1C2C (stereo partly specified),98
O=C(Nc1coc2ccccc12)c1ccc(C(F)(F)F)cc1,96
Cc1nn(C(=O)c2cccnc2)c(-c2ccccc2)c1Sc1ccccc1,100
N=C(N)SCCN1C(=O)c2ccccc2C1=O,102
CC1(C)CC(NCc2ccco2)CCO1 (stereo unspecified),100
COc1ccccc1C1CCN(C(=O)C2CCCCC2)CC1,100
Fc1cccc(Cl)c1-c1[nH]c(=S)nc2[nH]c(=S)[nH]c(=S)c12,99
O=C(NCc1nc2ccccc2n1Cc1ccccc1)c1ccccc1,98
Cn1c(-c2ncc(C(F)(F)F)cc2Cl)n[nH]c1=S,99
C=CCn1c(SCC(=O)c2ccccc2)nnc1-c1ccc(OC)c(OC)c1,107
COc1cc(C)nc(OCCNS(=O)(=O)c2cc(C)ccc2C)n1,100
c1ccc(N=c2oc3ccccc3cc2-c2nc3ccccc3[nH]2)cc1,100
O=C(COc1ccccc1)Nc1ccc(C(=O)c2ccccc2)cc1,99
CC(C)(C)C(=O)NCC(c1cccnc1)N1CCN(c2ccccc2)CC1 (stereo unspecified),98
Cc1ccc(C)n1-c1cccc(S(=O)(=O)N2CCOCC2)c1,99
Cc1cccn2c(=O)c(C=Nc3ccc(Cl)cc3)c(NCCO)nc12,100
O=C(NC1CCCCCC1)c1ccc2c(=O)n3c(nc2c1)CCCCC3,97
O=C(Cc1ccccc1)Nc1ccc(Cl)c(Cl)c1,100

# The closing 3 records of the section above come first, to join the parts:
smiles,Vaccinia pol inh
Cc1cccn2c(=O)c(C=Nc3ccc(Cl)cc3)c(NCCO)nc12,100
O=C(NC1CCCCCC1)c1ccc2c(=O)n3c(nc2c1)CCCCC3,97
O=C(Cc1ccccc1)Nc1ccc(Cl)c(Cl)c1,100
CCOC(=O)CSC1=NN2CCCC(=O)N=C2S1,100
Cc1c(C(=O)N(C)C2CCN(C)CC2)cnn1-c1ccc(F)cc1,108
COC(=O)c1c(N)sc2c1CCN(C)C2,102
NC(=O)COC(=O)c1ccccc1OCc1ccccc1,98
CCCN(CCC)CN1C(=S)SC2=NC(=O)CCCN21,98
CC(C)c1ccccc1NC(=O)CC1(CC(=O)O)CCCC1,101
Cc1nc2cc(-c3cccc(F)c3)nn2c(C)c1CCC(=O)Nc1ccc2c(c1)OCCO2,100
NC12CC3CC(CC(C3)C1)C2,101
Cc1c(C(=O)Nc2ccccc2Cl)sc2nc3n(c(=O)c12)N=C(c1cc(O)ccc1O)CS3,98
COCCn1c(=NC(=O)/C=C/c2cccs2)sc2cc(Br)ccc21,106
COc1ccc(NC(c2ccccn2)c2c(C)[nH]c3ccccc23)c(OC)c1 (stereo unspecified),101
Cc1cc2ccccc2c(=O)n1CC(=O)NCC(=O)N(C)C1CCCCC1,106
CCOC(=O)c1nnc(Cc2ccc(F)cc2)o1,100
OC[C@H]1O[C@@H](O[C@@H]2[C@@H](CO)O[C@](O)(CO)[C@H]2O)[C@H](O)[C@@H](O)[C@H]1O,93
CN(C)/C=C/C(=O)C(c1ccccc1)c1ccccc1,100
O=C1CCC(=O)N1c1ccc2c(c1)oc1ccccc12,100
CCOc1cc(/C=C2\SC(=S)NC2=O)cc(Cl)c1OC(=O)c1ccc(OC)cc1,100
OC(CNCc1ccc(OC(F)(F)F)cc1)C(F)(F)F (stereo unspecified),88
C=CCn1c(CSc2nnc(-c3ccccc3)n2C)n[nH]c1=S,108
O=C(Cc1c(C(=O)O)[nH]c2ccc(Cl)cc12)NCC1COc2ccccc2O1 (stereo unspecified),82
CN1CCN(C(CNS(=O)(=O)c2ccccc2)c2cccnc2)CC1 (stereo unspecified),102
O=C(COC(=O)C(Cc1ccccc1)N1C(=O)c2ccccc2C1=O)c1ccc(Br)cc1 (stereo unspecified),100

# Rewritten as labelled records: part of the list above
OC[C@H]1O[C@@H](O[C@@H]2[C@@H](CO)O[C@](O)(CO)[C@H]2O)[C@H](O)[C@@H](O)[C@H]1O
  Vaccinia pol inh = 93
CN(C)/C=C/C(=O)C(c1ccccc1)c1ccccc1
  Vaccinia pol inh = 100
O=C1CCC(=O)N1c1ccc2c(c1)oc1ccccc12
  Vaccinia pol inh = 100
